Screens from PubChem BioAssay.
eIF4H FP inh: inhibitors of RNA binding by human eIF4H; actives 0.94% (n = 290,000); Q15056; inhibition, % at 35 µM; eIF4H fluorescence polarization binding assay;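 active = 50% or more with normal probe brightness, or confirmed in later tests; about a fifth of its hits are not listed in these tables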;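 note: calls also rest on retests at 20 µM and on dose response follow-up; 0% = protein and probe with vehicle and 100% = probe without protein; strong numbers were not always called active; many hits fall short of the cut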
HIV Env fusion: inhibitors of HIV Env-mediated cell fusion | HeLa-JRFL Env/CEM21 cell fusion, luciferase | inhibition, % at 12.3 µM | AID 651610 | actives 1.1% (n = 360,000);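 active = mean replicate inhibition score of at least 50 and every replicate individually at or above 50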;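 note: 0% = plate neutral controls and 100% = maraviroc near 300 nM; one replicate is shown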
Rce1 inh: blocks yeast Ras-converting enzyme. calls only. actives 0.27% (n = 290,000). yeast membranes, quenched prenylated peptide cleavage fluorescence. Q03530;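 active = fall in fluorescence gain of 50% or more versus controls, with final raw signal at or below 3038400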;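 note: plate controls were neutral control wells for no effect and wells lacking membranes for full effect; tested at 10 µM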
UUG fidelity: alters start codon recognition fidelity in yeast; S. cerevisiae UUG-firefly luciferase reporter, luminescence/redox ratio; activity score, % at 18.7 µM; actives 0.13% (n = 350,000); AID 602363;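 active = replicate mean at a twofold rise or more, about +100% in these data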;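 note: firefly luciferase made from a UUG start codon reports start codon fidelity; reporter light over untreated wells divided by growth signal over untreated wells; some hits fall short of that in this replicate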
PABP FP inh: blocks human PABP binding to poly(A) RNA. AID 2014. P11940. inhibition, % at 35 µM. actives 1% (n = 290,000). fluorescence polarization;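 active = 50% or more with normal probe brightness, or confirmed in later tests; about a fifth of its hits are not listed in these tables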;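 note: calls also rest on retests at 20 µM and on dose response follow-up; controls were probe without protein and protein plus probe with vehicle; some compounds called inactive have numbers as strong as hits; many hits fall short of the cut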
Target sequence (P11940 whole entry, looked up): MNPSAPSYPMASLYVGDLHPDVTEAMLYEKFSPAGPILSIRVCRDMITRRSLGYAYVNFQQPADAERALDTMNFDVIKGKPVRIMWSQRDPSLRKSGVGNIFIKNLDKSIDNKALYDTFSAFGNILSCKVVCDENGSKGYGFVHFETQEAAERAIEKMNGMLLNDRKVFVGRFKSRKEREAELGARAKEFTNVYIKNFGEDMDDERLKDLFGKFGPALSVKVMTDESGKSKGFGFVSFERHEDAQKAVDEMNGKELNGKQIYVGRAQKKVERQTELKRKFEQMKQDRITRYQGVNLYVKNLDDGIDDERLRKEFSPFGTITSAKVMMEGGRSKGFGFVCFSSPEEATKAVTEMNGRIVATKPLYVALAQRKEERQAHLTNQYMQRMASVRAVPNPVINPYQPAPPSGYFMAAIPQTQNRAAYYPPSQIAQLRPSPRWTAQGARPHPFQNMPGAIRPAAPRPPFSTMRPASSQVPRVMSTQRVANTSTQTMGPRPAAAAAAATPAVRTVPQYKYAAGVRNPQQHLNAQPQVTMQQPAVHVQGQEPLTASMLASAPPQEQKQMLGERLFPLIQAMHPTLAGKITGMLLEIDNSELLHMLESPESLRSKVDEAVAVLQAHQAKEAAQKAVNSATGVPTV
CSC inhib: blocks cancer stem cells. cancer stem cell-like cells viability, luminescence. inhibition, % at 7.5 µM. actives 1.1% (n = 300,000);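 active = mean at 75% or more and at least half the replicates too; tested in HMLE shEcad cells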;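 note: 0% = median of negative and 100% = median of positive control wells; the first replicate is given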
MT1-MMP act inh: blocks activation of human MT1-MMP; P50281; HT1080 RFP-PRO-GFP cells, GFP/RFP ratio fluorescence, overnight; percent of plate control window, DMSO zero; GFP/RFP ratio change, % at 20 µM; actives 0.061% (n = 360,000); AID 651647;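 active = GFP/RFP ratio change of at least 30% with cell ATP level not reduced by more than half and red fluorescence within 50% of control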; note: strong numbers were not always called active
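Assay system: RFP-PRO-GFP reporter HT1080 cells; read-out basis: GFP/RFP fluorescence ratio; benchmarks: DMSO wells and RFP-L50D-GFP cells; doses: 20 µM single dose, 1% DMSO; schedule: overnight cell settling, then overnight compound exposure, 37 °C, 5% CO2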
eIF4H FP inh retest: also measured in eIF4H FP inh; calls as there; inhibition, %; compound at 20 µM; confirmation average;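 mean of two retest wells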
PABP FP inh retest: recorded beside PABP FP inh, whose call it bears; inhibition, %; compound at 20 µM; confirmation repeats;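 mean of two retest wells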
MT1-MMP act inh RFP: recorded beside MT1-MMP act inh, whose call it bears; RFP signal change, %; measured here: RFP expression control read;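 0 = vehicle wells; hits needed this value within 50% of zero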
* marks the source's active call; other numbers are inactive results; i = inactive; / = not tested or not shown; & = joins results of further samples.

SMILES	eIF4H FP inh	HIV Env fusion	Rce1 inh	UUG fidelity	PABP FP inh	CSC inhib	MT1-MMP act inh	MT1-MMP act inh RFP	others
O=c1[nH]oc2cc(Cl)ccc12	2	-6	i	/	8	-8	-1	4
COc1cccc(-c2csc(NC(=O)Nc3ccccc3)n2)c1	-12	28	i	-6	0	/	-6	-17
Cc1ccc(C(=O)OCC(=O)Nc2cccc(S(=O)(=O)N3CCOCC3)c2)o1	/	2	/	-12	/	/	-8	-1
O=C(NC1CCCCC1)N1CCN(C(c2ccccc2)c2ccccc2)CC1	-7	26	i	-11	-4	-3	-15	-7
O=C(COc1ccccc1)NCC(=O)Nc1ccncc1	/	1	i	-19	/	-9	5	2
Cc1ccc(C(=O)NCC(=O)N(C)CC(=O)Nc2c(Cl)cccc2Cl)s1	/	-12	i	23	/	/	5	-1
COc1ccc(S(=O)(=O)N2CCN(CC(=O)NCC3(N4CCOCC4)CCCCC3)CC2)cc1	/	-2	/	-9	/	/	-3	0
CCn1c(SCC(=O)NNC(=O)c2ccc(C)cc2)nnc1C1CC1	-3	3	i	-13	2	-12	2	0
COc1ccccc1-c1cc(C(=O)N/N=C/c2ccoc2)c2ccccc2n1	5	-30	/	-19	-4	-3	-8	6
Cc1ccccc1OCC(O)CN1CCCCC1 (configuration not stated)	0	11	i	/	2	-10	-1	5
CCN(CC)CC(O)c1cccn1-c1ccc(CNC(=O)NC(C)C)cc1 (configuration not stated)	2	4	i	/	-9	0	-3	5
Cc1ccc(CNC(=O)c2ccc(N3CCC4(CC3)CC(c3cccc(Br)c3)=NO4)c(N)c2)cc1	/	46	i	-5	/	10	4	-15
CC(=O)c1cnc(Nc2nc(C)c3cc(C)c(C)cc3n2)nc1C	-2	-103	i	-4	13	-11	9	5
COc1ccc(CCNC(=O)C(C)Sc2ccccc2)cc1OC (configuration not stated)	-9	/	i	-5	2	-9	1	3
O=C(NCc1cc(F)cc(C(F)(F)F)c1)C1CCC(=O)N(C2CCCC2)C1 (configuration not stated)	/	-2	i	3	/	-12	5	4
CCOC(=O)c1cc(C)n(CCc2ccccc2)c1C	-11	/	i	-3	-10	15	-2	-4
CCCN1CCN(CCCNC(=S)Nc2ccc(F)cc2)CC1	4	9	i	/	-10	1	-2	0
Cc1cc(C)cc(NC(=S)N(Cc2ccc(Br)cc2)Cc2ccc(C(=O)O)cc2)c1	8	-7	i	-17	16	12	2	-4
COc1ccc(Nc2nc(Cl)nc(NCc3ccco3)n2)c(OC)c1	-8	11	i	-3	-6	-13	-8	-8
CC(C)CC(=O)C1=C(O)C(=O)N(Cc2ccccc2)C1c1ccccc1 (configuration not stated)	-1	-2	i	-18	-2	-8	-5	-1
Cc1cc2oc(C(=O)NCc3ccc4c(c3)OCO4)c(C)c2cc1C	-5	-7	i	-14	-9	2	4	5
COc1ccc(C)cc1NC(=O)C(=O)NCc1ccncc1	-9	3	i	-22	1	-18	1	-1
CC1(C)C(=O)Nc2ccccc2N1C(=O)COc1ccccc1C#N	/	9	/	-8	/	2	-7	-3
CC(=O)Nc1ccc(C(=O)NNC(=O)c2ccc(Cl)cc2)cc1	2	-8	i	-3	7	-3	1	2
Cc1ccccc1CC1S/C(=N/N=C/c2ccco2)NC1=O (configuration not stated)	12	2	i	/	8	51	/	/

Filtered by structure: the entries above with an aryl thioether with sulfur outside any ring
SMILES	eIF4H FP inh	HIV Env fusion	Rce1 inh	UUG fidelity	PABP FP inh	CSC inhib	MT1-MMP act inh	MT1-MMP act inh RFP	others
CCn1c(SCC(=O)NNC(=O)c2ccc(C)cc2)nnc1C1CC1	-3	3	i	-13	2	-12	2	0
COc1ccc(CCNC(=O)C(C)Sc2ccccc2)cc1OC (configuration not stated)	-9	/	i	-5	2	-9	1	3

Returning to the listing, starting 3 compounds before the break.
SMILES	eIF4H FP inh	HIV Env fusion	Rce1 inh	UUG fidelity	PABP FP inh	CSC inhib	MT1-MMP act inh	MT1-MMP act inh RFP	others
CC1(C)C(=O)Nc2ccccc2N1C(=O)COc1ccccc1C#N	/	9	/	-8	/	2	-7	-3
CC(=O)Nc1ccc(C(=O)NNC(=O)c2ccc(Cl)cc2)cc1	2	-8	i	-3	7	-3	1	2
Cc1ccccc1CC1S/C(=N/N=C/c2ccco2)NC1=O (configuration not stated)	12	2	i	/	8	51	/	/
CS(=O)(=O)N1CCN(C(=O)CCC2CCCC2)CC1	0	/	i	-15	9	1	-1	2
COc1ccc(-c2c(NC(=O)c3ccco3)oc3ccc(Cl)cc3c2=O)cc1	-1	-1	i	-12	-4	14	4	0
Fc1ccc(Cn2cc(C(=S)N3CCOCC3)c3ccccc32)cc1	-6	26	i	-22	2	-7	0	-1
CCOC(=O)[C@H]1[C@H]2COc3ccc(C)cc3[C@@H]2N2C(=O)c3cc(OC)c(OC)cc3NC(=O)[C@@]12C	/	-7	/	-1	/	-3	1	-1
COCC(=O)N1CCC(Oc2ccc(C(=O)NCCc3ncccc3C)cc2)CC1	-12	12	i	-13	0	-10	-2	0
Cc1ccc(NC(=O)N(CCC#N)Cc2ccccc2)cc1	4	18	i	/	-7	-14	1	1
CC1(C(=O)Nc2cccc3ncccc23)CCN1C(=O)C1(c2ccccc2)CC1 (configuration not stated)	/	7	/	2	/	/	-3	-15
Cc1c(Cl)cccc1NC(=O)CNC(=O)c1ccco1	-10	7	i	-26	12	4	1	-2
Cc1[nH]c2ccccc2c1C(=O)CSc1nccc(=O)[nH]1	-10	2	i	/	4	10	1	3
COc1ccc(C(=O)Oc2cc3c4c(c2)C(C)=CC(C)(C)N4C(=O)C3=O)cc1OC	-3	10	i	/	12	11	-4	1
C/C(CC(=O)Nc1ccc2c(c1)OCCO2)=N\NC(=O)c1ccccc1F	-4	-8	/	-11	-4	-5	1	0
Cc1ccc(-c2csc(N(CCO)CCCn3c(C(F)(F)F)nc4cc(C(F)(F)F)ccc43)n2)cc1	-1	-3	i	-13	-25	4	7	5
Cc1sc2ncnc(OCC(=O)NC(C)C)c2c1C	-13	/	i	/	-14	-10	2	3
COc1ccc(CC(=O)N/N=C(\C)CC(=O)Nc2cccc(F)c2)cc1	0	17	i	-5	10	-2	2	1
CCCCCN(C(=O)CCC(=O)OCc1ccc(C(C)C)cc1)c1c(N)n(CCCC)c(=O)[nH]c1=O	/	-53	i	/	/	1	-26	-20
COc1cccc(C(C)(O)c2nc(-c3cnn(C)c3)cs2)c1 (configuration not stated)	/	-21	/	-17	/	/	3	1
O=C(NCC1CCCN(C(=O)NCc2ccccc2)C1)c1ccc2c(c1)OCO2 (configuration not stated)	-7	12	i	/	-10	-7	2	3
O=C(NCCc1ccccc1Cl)C1CCC(=O)N(CCCc2ccccc2)C1 (configuration not stated)	-16	7	i	-4	-15	-10	1	1
Cc1nn(C)cc1CNC(=O)C1CCC(=O)N(CC2CCCCC2)C1 (configuration not stated)	97	/	i	-11	7	-1	0	0	eIF4H FP inh retest=-3;PABP FP inh retest=8
O=C(C1CCCCC1)N1CCN(S(=O)(=O)c2ccc(Cl)cc2)CC1	4	/	i	-32	1	-2	-1	-4
O=C(NC1CCCC1)C(c1ccncc1)N(C(=O)c1csnn1)c1ccccc1F (configuration not stated)	11	8	i	-7	4	-18	2	1
O=C(O)c1ccccc1NC(=O)c1cc(-c2ccccc2)nc2ccccc12	-14	0	i	-18	21	24	4	2
O=C(Nc1ncn[nH]1)c1ccc(Cl)c(Cl)c1	/	-40	/	-20	/	/	1	2
Fc1ccc(NC(=S)NCCc2ccccn2)cc1	17	-23	i	/	1	-6	2	-4
Cc1cccc(N2C(=O)N3[C@H](c4ccc(F)cc4)[C@@H]4C(=O)N(C5CCCCC5)C(=O)[C@@H]4[C@]3(Cc3ccc(Cl)cc3)C2=O)c1	10	91*	i	-11	4	23	1	-5

Next part
SMILES	eIF4H FP inh	HIV Env fusion	Rce1 inh	UUG fidelity	PABP FP inh	CSC inhib	MT1-MMP act inh	MT1-MMP act inh RFP	others
O=c1[nH]c(NCCCO)nc2c1C1(CCCC1)Cc1ccccc1-2	-5	/	i	-2	-1	41	5	3
COc1ccc(CCC2(C)NC(=O)N(C(C)C(=O)Nc3ccccc3F)C2=O)cc1 (configuration not stated)	/	/	/	-3	/	-17	0	1
CN(C)C(=O)COC(=O)c1cccc(S(=O)(=O)Nc2ccc(OCc3ccccc3)cc2)c1	47	-4	i	-14	-3	19	1	-1
Cc1nn(C(C)C(=O)NCCCN2CCCCCC2)c(=O)c2cc3sccc3n12 (configuration not stated)	2	0	i	-9	4	-15	-3	0
Cc1cc(C)nc(SCCn2c(N(C)Cc3ccccc3)nc3c2c(=O)n(C)c(=O)n3C)n1	-3	/	i	/	2	-12	-1	0
CC1(C)Cc2c(c(N3CCOCC3)nc3snc(N)c23)CO1	-4	21	i	-21	6	21	-5	-9
Cc1cc(=O)[nH]c(N/N=C/c2ccco2)n1	-6	-42	i	-15	10	-10	1	0
COc1ccc(S(=O)(=O)Nc2ccc3c(c2)C(=O)N([C@H](C)CO)C[C@H](C)[C@@H](CN(C)Cc2ccncc2)OCCCC[C@@H](C)O3)cc1	/	-50	/	-2&-2	/	/	-3	2
Cc1ccc(CCC(=O)Nc2cc(Cl)ccc2Cl)o1	21	14	i	-9	6	-11	0	-3
O=C(N/N=C/c1ccccc1Cl)c1ccncc1	-1	0	i	-17	6	4	-3	-1
O=C(Nc1cccnc1)c1ccc(Cl)c(S(=O)(=O)N2CCCCCC2)c1	0	16	i	-15	6	-18	0	-19
Cn1c(=O)c([N+](=O)[O-])c(-n2cnc3ccccc32)c2ccccc21	2	-3	i	-11	3	7	2	0
COc1ccc(CCn2c(=N)c(C(=O)NCCN3CCOCC3)cc3c(=O)n4ccccc4nc32)cc1OC	-18	2	i	-9	-5	-7	-3	-2
O=C(CCOc1ccccc1F)N1CCN(c2ccccc2O)CC1	6	-2	i	/	-2	3	1	-1
O=C(CNC(=O)N1CC(=O)Nc2ccccc21)Nc1ccccc1F	3	-4	i	-11	-15	0	-4	2
Brc1ccc(COn2ccnc2)cc1	8	-5	i	/	3	/	1	-1
C/C(=N\OC(=O)C1CC1)C1CC1c1ccc(F)cc1 (configuration not stated)	3	17	i	15	13	-12	-2	1
CC(C)(C)c1csc(NC(=O)c2ccncc2)n1	9	-10	i	/	0	-11	-6	-20
Cc1ccc(Cn2c(CCNc3nc(-c4ccc(Cl)c([N+](=O)[O-])c4)cs3)nc3cc(Cl)c(Cl)cc32)cc1	/	49	i	-24	/	54	9	-4
COCCCNc1ccn2nc(-c3ccc(Cl)cc3)cc2n1	/	-121	/	-25	/	/	-2	-14
CC(=O)c1c(COC(=O)c2ccncc2)nc2ccccc2[n+]1[O-]	-11	/	i	-15	4	-4	-3	2
CC(CCc1ccccc1)NC(=O)c1ccccc1 (configuration not stated)	-7	/	i	4	2	2	0	3
COc1cc(C2NC(=O)NC(C)=C2C(=O)OC2CCCC(C)C2)cc(Br)c1O (configuration not stated)	-8	7	i	2	-15	-15	0	-1
CN(CC(=O)Nc1ccc(F)cc1)C(=O)COc1ccc(C(=O)c2ccccc2)cc1	4	/	i	/	5	-11	0	-8
CCc1cccc(NC(=O)CCc2c(C)nn(-c3ccc(N4CCCCC4)nn3)c2C)c1	-18	-14	i	-15	-10	-14	5	-4
CC(C)OC(=O)CSc1nnc(CNc2ccc(Cl)cc2)n1C	-10	-20	i	/	-4	-11	3	4
COc1ccccc1S(=O)(=O)N(C)C[C@H]1OCc2cn(nn2)CCCC(=O)N([C@@H](C)CO)C[C@@H]1C	/	8	/	-16&-2	/	/	0	4
CCOc1cc(NC(=O)c2ccccc2[N+](=O)[O-])c(OCC)cc1NC(=O)CC(C)C	0	/	i	-6	-3	/	5	6
Cc1ccc2cc(CCNC(=O)c3ccc(S(=O)(=O)N4CCOCC4)cc3)c(=O)[nH]c2c1C	-4	-44	i	18	-8	-2	1	-3

These rows are one share of the data (hit frequency here may not be typical).
